Source: PubChem BioAssay
gsp antag = antagonizes gsp, the McCune-Albright syndrome mutation; AID 624288; hit rate 0.4% among 340,000; Potency, µM (titrated, usually from 76.9 µM), for the others: at the top dose activity change, negative = inhibition, actives largely listed as inhibitors; gsp-mutant cells, cAMP HTRF, 30 min; control for the full effect not named in the record; active = falling curve of any shape with a large fitted effect; inconclusive = falling curve, mostly with a smaller effect; inactive = flat or rising curve; cell line not stated here;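 also: intracellular cAMP measured with PDE inhibitor Ro 20-1724 present during compound exposure; potency is read from the fitted curve at half-maximal effect; % is scaled to controls: 0 for no effect and ±100 for the full control effect; nearly all actives have a fitted effect of over 65% in size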
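Cells, 2000/well, grown 16–24 h in DMEM 10% FBS with 0.5 mg/ml G418, then compounds plus […] (300 uM addition stock), 30 min at 37C. cAMP read by HTRF (cAMP-d2 and anti-cAMP antibody-K in lysis buffer) after 30 min RT.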
D2 potentiator = human D2 receptor positive allosteric modulation. P14416. DiscoveRx D2 beta-arrestin cells, luminescence, 90 min; 100% = 57 uM dopamine signal. potentiation, % (no concentration beside the values). hit rate 0.23% among 360,000. AID 624464; active = potentiation of 50% or more; inconclusive = 30% to 50%; inactive = 30% or less;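 also: compound concentration not given in the record; tested on top of an EC20 dose of dopamine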
Target sequence (P14416 whole entry, looked up): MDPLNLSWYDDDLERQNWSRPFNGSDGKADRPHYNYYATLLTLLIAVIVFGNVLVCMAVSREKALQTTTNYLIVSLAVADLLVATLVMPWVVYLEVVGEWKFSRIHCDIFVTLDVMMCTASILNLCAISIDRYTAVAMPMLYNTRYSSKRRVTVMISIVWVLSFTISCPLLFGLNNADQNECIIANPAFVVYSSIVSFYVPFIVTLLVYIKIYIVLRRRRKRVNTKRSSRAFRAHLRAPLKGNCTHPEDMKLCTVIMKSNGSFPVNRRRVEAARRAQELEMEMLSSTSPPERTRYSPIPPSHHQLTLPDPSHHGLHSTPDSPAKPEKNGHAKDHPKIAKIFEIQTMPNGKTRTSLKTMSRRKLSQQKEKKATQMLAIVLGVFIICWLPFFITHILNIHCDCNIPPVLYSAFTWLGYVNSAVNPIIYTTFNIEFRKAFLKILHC
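PathHunter D2 cells, attached overnight at 37 deg C, received compound in DMSO plus dopamine at EC20 (50 nM final) for 90 min at 37 deg C. Beta-arrestin recruitment was read as luminescence after 1 h with detection reagent at ambient temperature.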
TRPV1 PAM = enhances activation of the human vanilloid receptor TRPV1; AID 540277; potentiation, % at 8.33 µM; TRPV1-expressing cells, Fluo-8 calcium influx, capsaicin EC20 potentiation; host cell line not named in the record; control for the full effect not named in the record; hit rate 0.02% among 320,000; active means potentiation above 80%; inconclusive means 30% to 80%; inactive means below 30%; also: 0% is about no effect
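Fluo-8 calcium influx in TRPV1-expressing cells, kinetic read (ex 480/em 520 nm). Compound added and read 3 min for agonist activity, followed by capsaicin at EC20 final and 2 min further read for enhancement.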
Menin-MLL FL inh = inhibitors of human menin-MLL interaction, wild-type MLL peptide. Fluorescence polarization, fluorescein-MLL peptide displacement from menin. FP activity change, % at 61.4 µM. 290,000 tested, under 10 active; inconclusive = falling polarisation curve, or a change in total fluorescence; inactive = total fluorescence flat and polarisation flat or rising; no compound was filed as active; the % refers to the polarisation; negative = inhibition;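 also: % of control where 0% means no effect; inhibitors lower the polarisation; unlabelled MLL peptide was the positive control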
gsp ag = agonists of gsp mutant (McCune-Albright syndrome) | hit rate 0.13% among 340,000 | gsp mutant cells, cAMP HTRF, 30 min; control for the full effect not named in the record | Potency, µM (series often up to 76.9 µM), without a hit: top-dose activation (cAMP increase), hits mostly activators; active = well fitted activation curve with a large enough effect; inconclusive = small, poorly fitted or top-dose-only effect, or another doubt; inactive = no such curve, though single readings can be large or run the other way; cell line not stated here;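 also: phosphodiesterase inhibitor Ro 20-1724 added with compounds to block cAMP breakdown; potency is read from the fitted curve at half-maximal effect; nearly all actives have a fitted effect of over 60% in size; about a fifth of the inactives were tested at one dose only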
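Cells stably selected in G418 were plated at 2000/well, grown 16-24 hr, then given compounds in DMSO with the PDE inhibitor […] (300 uM solution added) for 30 min at 37C; cAMP was read by HTRF.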
Sfp inh = inhibitors of Bacillus subtilis Sfp phosphopantetheinyl transferase. Q9F4F7. Biochemical Sfp PPTase activity, qHTS. Potency, µM, for the others: max response, negative = inhibition, hits mostly inhibitors. hit rate 3.5% among 310,000. AID 1490; active = well fitted inhibition curve with a large enough effect; inconclusive = small, poorly fitted or top-dose-only effect, or another doubt; inactive = no such curve, though single readings can be large or run the other way;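 also: the enzyme is Sfp with the accession as filed and its product quenches rhodamine fluorescence; potency is read from the fitted curve at half-maximal effect; 0% = enzyme reaction without inhibitor and -100% = no enzyme wells; top concentration of the series not given in the record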
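After 15 min at room temperature with compound, 15 nM Sfp received 5 uM rhodamine-CoA plus 12.5 uM BHQ-2-ybbR (50 mM Hepes pH 7.6, 10 mM MgCl2). Rate came from the fluorescence difference over 30 min, ex 525/em 598 nm.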
ClpP mod = qHTS Assay for Activators of ClpP. ATP-dependent Clp protease proteolytic subunit (Bacillus subtilis (strain 168)), P80244. purified B. subtilis ClpP, FRET peptide cleavage, 20 min. Potency, µM (series often up to 57.5 µM), without a hit: top-dose activity change, negative = active. AID 651965, 2013. hit rate 1.9% among 340,000; active = well fitted falling curve with a large enough effect; inconclusive = small, poorly fitted or top-dose-only effect; inactive = no such curve, though single readings can be large or run the other way; also: potency is read from the fitted curve at half-maximal effect; the source files actives as falling curves though it sought activators and does not explain the sign; nearly all actives have a fitted effect of over 65% in size; many hits overshoot -100%
Target sequence (P80244 whole entry, looked up): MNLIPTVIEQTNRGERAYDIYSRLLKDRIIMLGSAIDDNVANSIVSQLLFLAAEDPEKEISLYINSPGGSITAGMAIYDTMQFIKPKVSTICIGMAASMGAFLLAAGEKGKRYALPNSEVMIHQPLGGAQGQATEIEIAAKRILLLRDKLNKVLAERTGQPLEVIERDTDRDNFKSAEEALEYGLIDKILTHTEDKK
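Buffer: 100 mM Tris/HCl pH8, 100 mM KCl, 0.05% low protease BSA, 2.5% glycerol, 0.01% Tween-20. ClpP 10 microg/mL final; 20 min RT; delta FRET normalized to ADEP and DMSO controls.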
* hit, by the source's call; ? = inconclusive; nt = no result given; & = joins results of further samples; [ ] = remark or other dose. Not a hit list; any-hit rate near 5.1%.

The line under a structure holds: gsp antag	D2 potentiator	TRPV1 PAM	Menin-MLL FL inh	gsp ag	Sfp inh	ClpP mod
> c1ccc(C2=NCCCN2)cc1
  4.9%	-6.3	21.3	0.5	-16.7%	19.2%	-0.8%
> O=C(NCc1ccco1)c1ccc(S(=O)(=O)c2cccc(S(=O)(=O)N3CCOCC3)c2)cc1
  -12.3%	-7.0	-3.5	0.5	?	5.3%	-6.2%
> Cn1nc(C(C)(C)C)cc1C(=O)NCc1ccc2c(c1)OCO2
  -22.6%	-4.1	17.1	nt	-0.6%	3.6%	-2.0%
> Cc1ccnc2nc(C(=O)OCCOc3ccc(F)cc3)nn12
  -39.7%	2.8	1.3	-3.2	24.7%[15.4 µM]	-3.5%	nt
> Cc1cccc(NC(=O)c2cc(N3C(=O)CCC3=O)ccc2Cl)n1
  7.3%	-1.3	1.6	1.6	-18.7%	8.9%	0.5%
> Cc1c(NC(=O)c2nn(C)c(=O)c3ccccc23)c(=O)n(-c2ccccc2)n1C
  2.9%	1.7	nt	nt	-7.7%	nt	-0.5%
> C#CCOCCOCCOCCNc1nc(N2CCN(C(=O)[C@H](Cc3cc4ccccc4[nH]3)n3cc([C@@H](N)CC(C)C)nn3)CC2)nc(N2CCN(C(=O)[C@H](Cc3cc4ccccc4[nH]3)n3cc([C@@H](N)CC(C)C)nn3)CC2)n1
  -6.9%	-12.0	16.6	14.1	-41.1%[inhibitor]	15.8µM*	-1.4%
> CCCn1c(=O)c(-c2nc3ccccc3[nH]2)c(O)c2ccccc21
  0.8%	-4.7	10.6	-3.7	7.5%[15.4 µM]	12.2%	?
> NC(=O)c1ccc(F)cc1
  0.8%	9.1	-12.9	-5.7	7.8%	7.3%	-2.0%
> COc1ccc(NC(=O)NC23CC4CC(CC(C4)C2)C3)cc1OC
  -0.1%	-20.2	9.6	4.9	-31.1%[inhibitor]	8.7%	1.7%
> COc1ccc(-c2cnn3c4c(c(C)nc23)CCN4C2CCCC2)cc1OC
  -2.0%	-9.2	22.0	0.3	0.7%	-7.9%	-5.4%
> CCN(C(=O)CCS(=O)(=O)c1cc2c(cc1Cl)NC(=O)CO2)c1ccccc1
  -1.1%	-2.5	-6.4	3.4	-4.0%	5.7%	1.2%
> O=S(=O)(/N=C(\[O-])C[n+]1ccccc1)c1ccc(Cl)cc1
  8.6%	-4.8	22.1	-3.1	14.9%[15.4 µM]	21.7%	nt
> CN(C[C@H](Cc1ccccc1)N(C[C@@H](Cc1cccc2ccccc12)N(CCc1ccccc1)N=O)N=O)N=O
  -2.6%	-4.5	5.8	-0.5	17.7%	14.3%	-0.1%
> CC(C)[C@H](NC(=O)Nc1ccc2c(c1)OCCO2)C(=O)O
  7.9%	-5.1	5.8	3.1	-13.6%	5.0%	-1.6%
> CCOc1ccc(Oc2ccc(S(=O)(=O)N3CCOCC3)cc2NC(=O)CCNC(C)=O)cc1
  6.7%	-2.5	-5.3	nt	10.4%[15.4 µM]	nt	nt
> O=C1Cc2ccccc2C(=O)N1Nc1ccccc1
  0.5%	-6.6	nt	nt	-0.3%	nt	0.4%
> COc1ccc(NC(=O)c2c(SC)nsc2SC)cc1
  4.5%	-9.0	-3.0	-0.5	10.8%	-13.2%	-10.9%
> Nc1nc2c(c(=O)[nH]1)CN(Cc1ccccc1)CC2
  13.1%	-16.5	4.4	nt	-19.6%	nt	-9.2%
> COc1ccc(C(=O)OC(C)CN2CCN(C)CC2)cc1OC (stereo unspecified)
  11.1%	-13.1	-4.5	1.1	3.6%	23.9%	-5.0%
> COc1cc([N+](=O)[O-])ccc1NC(=O)NNC(=O)C(C)Oc1ccc(F)cc1F (stereo unspecified)
  -15.8%	-22.9	2.2	2.0	-19.5%	2.8%	0.3%
> Cc1ccc(/C=N/NC(=O)c2nnn(-c3nonc3N)c2CSc2ccccc2)o1
  ?	-11.4	-5.6	-3.6	-7.2%	-14.3%	nt
> CCN(CC)C(=O)Cn1cc(C(=O)C(=O)NCCc2ccccc2)c2ccccc21
  -9.9%	2.7	1.3	-2.8	-9.7%	0.9%	-2.6%
> O=C(NCCN1C(=O)S/C(=C\c2cccnc2)C1=O)c1ccc([N+](=O)[O-])s1
  2.9%	18.6	8.6	nt	-38.5%[inhibitor]	nt	-4.6%
> COc1ccc(NC(=O)N2CCCC2C(=O)Nc2ccc(C)cc2)cc1 (stereo unspecified)
  5.7%	-11.6	-6.7	-0.3	9.7%	-2.2%	-6.9%
> Cc1cc(C)n2c(SCC(=O)Nc3ccccc3C#N)nnc2n1
  10.0%	-4.5	-2.6	nt	21.2%	nt	-8.8%
> Cc1c(/C=N/Nc2ccc([N+](=O)[O-])cn2)c2ccccc2n1Cc1ccccc1
  13.6%	3.5	-3.5	4.9	5.9%	0.2%	2.3%
> COc1ccc(CN(C)C[C@@H]2OCc3cnnn3CCCC(=O)N([C@@H](C)CO)C[C@H]2C)cc1
  nt	-1.7	nt	nt	-74.6%[inhibitor]	nt	-0.9%
> CCOc1cc(C)c(Cl)cc1S(=O)(=O)n1ccnc1
  3.5%	7.6	-11.2	6.9	1.6%	2.0%	nt
> c1ccc(-c2nnc(CSc3ccc4c(c3)OCCO4)o2)cc1
  -13.8%	11.1	-22.9	-1.9	-1.6%	-3.0%	nt

The final 2 entries of the part above lead into the next.
The line under a structure holds: gsp antag	D2 potentiator	TRPV1 PAM	Menin-MLL FL inh	gsp ag	Sfp inh	ClpP mod
> CCOc1cc(C)c(Cl)cc1S(=O)(=O)n1ccnc1
  3.5%	7.6	-11.2	6.9	1.6%	2.0%	nt
> c1ccc(-c2nnc(CSc3ccc4c(c3)OCCO4)o2)cc1
  -13.8%	11.1	-22.9	-1.9	-1.6%	-3.0%	nt
> CC(Oc1ccccc1)C(=O)OCC(=O)Nc1ccc2c(c1)OCO2 (stereo unspecified)
  -8.1%	7.6	nt	nt	-0.1%	nt	nt
> CN(C)S(=O)(=O)c1cc(NC(=O)CN2CCN(c3ccccc3O)CC2)ccc1Cl
  -20.8%	-37.4	-11.8	-1.4	16.3%[15.4 µM]	3.2%	-2.5%
> O=C(CSc1nnc(-c2ccc(O)cc2)n1Cc1ccco1)c1ccccc1
  -9.4%	-19.2	5.1	0.5	-15.7%	?	1.3%
> CC(=O)Nc1ccc(Sc2ccccc2C(=O)O)c(C(=O)O)c1
  4.7%	-5.4	-10.6	1.3	0.1%	2.7%	nt
> Cc1cc(C(=O)NCC(=O)OCC(=O)N2CCCCCC2)ccc1[N+](=O)[O-]
  0.4%	4.2	-1.6	3.1	-3.2%[15.4 µM]	14.4%	-0.5%
> CCN(CC)CCCNC(=S)N(Cc1ccco1)Cc1cc2cc3c(cc2[nH]c1=O)OCCO3
  nt	nt	-8.7	9.2	nt	79.4µM*	nt
> CN(Cc1ccc(C(F)(F)F)cc1)C(=O)c1ccc2ccccc2n1
  2.9%	-4.3	21.7	-4.5	20.0%[15.4 µM]	10.1%	nt
> O=C(Nc1ccccc1C(F)(F)F)N1CCN(C(c2ccccc2)c2ccccc2)CC1
  -2.1%	-3.7	-10.0	-2.4	5.8%	-5.6%	1.3%
> Cc1sc2nc(SCC(=O)NCc3ccco3)n(C)c(=O)c2c1C
  0.6%	-6.8	-1.7	1.3	-29.2%	9.6%	-0.6%
> O=C(CCCC(=O)NCc1ccccc1)NCc1ccccc1
  12.8%	-14.9	8.2	11.4	-6.7%	1.8%	2.2%
> COC(=O)C(C(=O)OC)C(C)C(C(=O)OC)C(=O)OC
  1.0%	-3.9	9.4	0.3	?	7.5%	3.8%
> CC(=O)c1ccc(S(=O)(=O)NC2CCCCCCC2)cc1
  -4.1%	-2.7	-4.3	?	-16.4%	0.1%	nt
> CC(C)CC(NC(N)=O)C(=O)OCC(=O)NC(=O)NC1CCCC1 (stereo unspecified)
  5.7%	-13.4	-4.1	4.7	-27.2%	2.9%	-4.1%
> CCOC(=O)N1CCN(C(=O)C(=O)Nc2ccc3nc4n(c(=O)c3c2)CCCCC4)CC1
  5.2%	-4.7	8.3	0.1	?	15.8%	-5.0%
> Cn1nc(SCc2ccccc2)c(=O)n(C(c2ccccc2)c2ccccc2)c1=O
  20.2%	-3.1	nt	nt	4.6%	nt	-24.8%
> CCN(Cc1ccccc1)C(=O)CCS(=O)(=O)c1cc2c(cc1Cl)NC(=O)CO2
  -5.3%	-0.8	-27.0	7.3	18.1%	-1.7%	1.6%&-0.4%
> COC(=O)c1nn(-c2ccccc2)ccc1=O
  7.9%	-8.2	22.0	0.1	11.0%	9.4%	2.5%
> O=C(OCc1ccccc1)c1cccc(-c2nnc(-c3ccccc3)o2)c1
  -5.2%	-0.8	-0.8	0.2	?	-0.7%	35.5µM*
> CCOc1cc(C(=O)NCc2ccc(-c3nc4ccccc4o3)cc2)cc(OCC)c1OCC
  -1.0%	-12.2	7.8	-2.4	-23.7%	1.5%	-16.1%
> O=C(NC(=S)N1CCCCC1c1cccnc1)c1ccc(Br)cc1 (stereo unspecified)
  -5.4%	-1.3	3.2	-4.8	7.4%	-25.0%	-1.1%
> CCSc1nnc(NC(=O)c2cc(OC)c(OC)c(OC)c2)s1
  -2.2%	-41.2	6.0	-6.9	18.2%	24.3%	-2.4%
> O=C(CSc1ncn[nH]1)Nc1ccc2c(c1)OCCO2
  2.9%	-24.7	4.9	4.0	-15.9%	22.6%	1.0%
> O=C(Cn1c(-c2cncs2)nc2ccccc21)NCc1ccccc1
  6.1%[15.4 µM]	-5.9	20.9	1.7	-0.9%	20.9%	-6.5%
> CC(C)=CCN1CCN(Cc2ccc(N3CCNC3=O)cc2)CC1CCO (stereo unspecified)
  1.2%	5.5	-6.5	-1.2	-1.1%	-7.8%	-1.8%
